# miR-21 reporter: raises the signal of a miR-21 reporter; AID 2288; HeLa miR-21 FLuc reporter, luciferase, 48 h; Potency, µM (top dose mostly 38.3 µM), without a hit: at the highest dose reporter change, positive = more light; 340,000 tested, under 10 active; active = well fitted rising curve with a large enough effect; inconclusive = small, poorly fitted or top-dose-only effect; inactive = no such curve, though single readings can be large or run the other way;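 further: % of control where 0% means no effect; miR-21 action dims this reporter so a rising signal means less miR-21 action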
#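 Using DMEM plus 10% FBS, HeLa miR-21-FLuc cells are incubated with test compounds (final up to about 40uM) for 48 hours; firefly luciferase signal is then imaged following reagent-mediated lysis.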
# * marks the source's active call; other numbers are inactive results; ? = inconclusive. These rows are one share of the data; count on the stated rates, not on these rows.
miR-21 reporter | molecule
29% | Cc1cccc(-c2nc(SCC(=O)Nc3ccc4c(c3)OCO4)c(-c3ccccc3)[nH]2)c1
24% | CCN1C(=O)c2ccccc2Sc2ccc(NC(=O)c3ccc(C)c(F)c3)cc21
0% | COc1ccc(N2CC(NC(=O)c3ccco3)CC2=O)cc1OC (stereo unspecified)
7% | O=C(COc1ccc2ccccc2c1)NC1CC(=O)N(c2cccc(F)c2)C1 (stereo unspecified)
23% | O=S(=O)(Nc1ccc(Cl)cc1)c1ccc(NS(=O)(=O)c2ccc3c(c2)OCCO3)cc1
-4% | CCOc1ccc(C2C(C(=O)Nc3ccc(Cl)cc3)=C(C)Nc3nc(C(F)(F)F)nn32)cc1 (stereo unspecified)
-6% | CCCCN(CC)c1ncnc2c1sc1nc(N3CCOCC3)c3c(c12)CCCC3
-9% | COc1cc2c(=O)c(C(=O)c3ccc(C)c(C)c3)cn(Cc3ccccc3F)c2cc1OC
-5% | Cc1nc2ccccc2n1CCc1nc2c3ccccc3nc(SCc3ccccc3F)n2n1
-4% | COc1ccc(-c2cc3ccc(O)c(CN4CCCCC4C)c3oc2=O)cc1OC (stereo unspecified)
-1% | COc1ccc(-c2n[nH]c3c2C(c2ccccn2)N(C)C3=O)cc1 (stereo unspecified)
-37% | CCn1c(COc2ccc(Cl)cc2Cl)nc2ccccc21
11% | Cc1cccc(-n2c(=O)c3c(c4cc(C)ccc4n3C)n(CC(=O)Nc3ccccc3C(F)(F)F)c2=O)c1
8% | CCCN1CCN(CCNC(=O)Nc2ccccc2OCC)CC1
1% | Cc1ccc2oc3c(c(=O)c2c1)C(c1ccc([N+](=O)[O-])cc1)N(CCCN1CCOCC1)C3=O (stereo unspecified)
-4% | O=C(NCc1ccccc1Cl)c1cccn1-c1nnc(N2CCCCC2)s1
29% | CCc1ccc(C(=O)c2cn(CC(=O)Nc3ccc(F)cc3)c3ccc(F)cc3c2=O)cc1
-2% | CCN(CCN(C)C)C(=O)Cn1ncc2c([nH]c3ccc(C)cc32)c1=O
-8% | COc1ccc(-c2nnc(SCC(=O)NC3CCCCC3)nc2-c2ccc(OC)cc2)cc1
-4% | COc1ccc(NC(=O)c2cnn(-c3ccc(C)c(C)c3)c2C2CCNCC2)cc1OC
5% | Cc1ccc(CNC(=O)c2nc(SCc3ccccc3F)ncc2Cl)cc1
5% | O=C(Nc1cccc(C(F)(F)F)c1)Nc1nnc(N2CCCCC2)s1
-4% | COC(=O)c1ccc(-n2c(/C=C\c3cccc(Br)c3)nc3ccccc3c2=O)cc1
11% | COc1ccc(NC(=O)C(Cc2ccccc2)NS(=O)(=O)c2ccc(Br)s2)cc1OC (stereo unspecified)
2% | N#C/C(=C\c1ccc(O)cc1)C(=O)NCC1CCCO1 (stereo unspecified)
2% | Cc1ccccc1C(=O)Nc1cccc(C(=O)OCc2cc(=O)n3c(C)csc3n2)c1
7% | Cc1cc(C)cc(-n2c(C)cc(C(=O)C(=O)Nc3nnc(C)s3)c2C)c1
25% | COc1ccc(-c2noc(CSc3nc4ccccc4[nH]3)n2)cc1OC
-7% | CCC(C)c1ccc(OCC(=O)Nc2cccc3ccc(C)nc23)cc1 (stereo unspecified)
1% | COc1cc2nc(NCc3ccccc3)n3nc(-c4ccccc4)nc3c2cc1OC
-1% | COC(=O)c1ccc2c(c1)N(Cc1ccccc1)C(=O)c1ccccc1S2(=O)=O
14% | O=C(CCC1N=C2c3ccccc3N=C(SCc3cccc(Cl)c3)N2C1=O)NCCc1ccccc1 (stereo unspecified)
-9% | Cn1c(NCCO)nc2c1c(=O)n(Cc1cccc(F)c1)c(=O)n2C
1% | Cc1c(/C=C(\C#N)C(=O)Nc2cccc(Cl)c2)c2ccccc2n1Cc1ccccc1
21% | CCOc1cc(Cl)c(S(=O)(=O)n2cc(C)nc2CC)cc1Cl
-2% | O=C(/C=C\c1ccccc1)NC1CC(=O)N(c2ccccc2)C1 (stereo unspecified)
0% | O=C(CCS(=O)(=O)c1nc(-c2ccc3c(c2)OCO3)cc(C(F)(F)F)n1)Nc1ccccc1C(F)(F)F
1% | COc1cc2c(-c3ccccc3C)nc3c(c(C)nn3-c3ccccc3)c2cc1OC
0% | Cc1ccccc1-c1nnc(C2CCN(S(=O)(=O)c3ccc(Cl)cc3)CC2)o1
-3% | CCc1ccc(CNC(=O)Cn2nc(-c3ccc(Cl)cc3)ccc2=O)cc1

# 5 of the entries above in order of their number in miR-21 reporter, highest first:
miR-21 reporter | molecule
24% | CCN1C(=O)c2ccccc2Sc2ccc(NC(=O)c3ccc(C)c(F)c3)cc21
14% | O=C(CCC1N=C2c3ccccc3N=C(SCc3cccc(Cl)c3)N2C1=O)NCCc1ccccc1 (stereo unspecified)
8% | CCCN1CCN(CCNC(=O)Nc2ccccc2OCC)CC1
1% | Cc1c(/C=C(\C#N)C(=O)Nc2cccc(Cl)c2)c2ccccc2n1Cc1ccccc1
-6% | CCCCN(CC)c1ncnc2c1sc1nc(N3CCOCC3)c3c(c12)CCCC3

# Rewritten field by field: entries from further up
> O=C(Nc1cccc(C(F)(F)F)c1)Nc1nnc(N2CCCCC2)s1
  miR-21 reporter: 5%
> Cc1cc(C)cc(-n2c(C)cc(C(=O)C(=O)Nc3nnc(C)s3)c2C)c1
  miR-21 reporter: 7%

# Remaining list, next part
miR-21 reporter | molecule
1% | Cc1nn(CC(=O)Nc2cccc(C(F)(F)F)c2)c(=O)c2nn(-c3ccccc3)c(C)c12
0% | Cc1ccc(C)c(NC(=O)Cn2cc(C(=O)c3ccncc3)c(=O)c3cc(F)ccc32)c1
18% | COc1cc(NS(=O)(=O)c2ccc3c(c2)CC(C)N3C(=O)C2CCC2)cc(OC)c1OC (stereo unspecified)
6% | COC(=O)c1ccc(C2Nc3c(C)cc(C)cc3C3C=CCC32)cc1 (stereo unspecified)
3% | Cc1ccc(CNC(=O)c2cccc(N3CCCS3(=O)=O)c2)cc1
-5% | Cc1ccccc1OCc1nnc(SCc2cc(=O)c3ccc(C)c(C)c3[nH]2)n1C
0% | COc1cc(-c2noc(-c3nnn(-c4ccc(Cl)cc4)c3C)n2)cc(OC)c1OC
-5% | O=C1Nc2ccc(C(F)(F)F)cc2N2CCCC12 (stereo unspecified)
16% | Cc1cc(C)cc(NC(=O)c2cnn(-c3ccc(C)c(C)c3)c2C2CCNCC2)c1
1% | COc1cccc(C(=O)NCC(=O)OCc2cc(=O)n3ccsc3n2)c1
0% | COc1ccc(CNC(=O)Cc2ccc(NC(=O)N3CCSc4ncccc43)cc2)cc1
1% | Cc1ccc(C(=O)NCC(c2ccco2)S(=O)(=O)c2ccc(Cl)cc2)cc1C (stereo unspecified)
0% | O=C(NCCS(=O)(=O)N1CCN(c2ccc(F)cc2)CC1)C1CC(=O)N(c2ccc(F)cc2)C1 (stereo unspecified)
21% | COc1ccc(CNC(=O)Nc2ccc3c(c2)N(C)C(=O)c2ccccc2S3)cc1
-4% | O=C(C1=C(O)C(=O)N(CCCn2ccnc2)C1c1ccc(F)cc1)c1ccco1 (stereo unspecified)
1% | COc1ccc(Cl)cc1NC(=O)c1cc(C)nc2c1c(C)nn2-c1ccccc1
2% | Cc1ccc2scc(N3CCC(C)CC3)c(=O)c2c1
-3% | CN(Cc1ccccc1)C(=O)CN1C(=O)CSc2ccc(S(=O)(=O)N3CCOCC3)cc21
0% | Cc1c2cnn(-c3ccccc3)c(=O)c2c(C)n1CCCC(=O)Nc1cccc(F)c1
? | CCOc1ccc(C(=O)NCCn2cc(SCC(=O)Nc3ccccc3)c3ccccc32)cc1

# Structures from the list above with a thiophene ring, fused or not (two):
miR-21 reporter | molecule
-6% | CCCCN(CC)c1ncnc2c1sc1nc(N3CCOCC3)c3c(c12)CCCC3
11% | COc1ccc(NC(=O)C(Cc2ccccc2)NS(=O)(=O)c2ccc(Br)s2)cc1OC (stereo unspecified)

# The listing continues.
miR-21 reporter | molecule
-3% | Cc1ccc(C(=O)Nc2c(C)nc3ccccn3c2=O)cc1C
6% | CCc1nn2c(=O)c(S(=O)(=O)Nc3ccc(Br)cc3F)c(C)nc2s1
-2% | CCc1ccc(NC(=O)N(Cc2c[nH]c3ccccc23)C2CCCCCC2)cc1
-14% | CCOc1ccccc1NC(=O)CSc1nc2c(oc3ccccc32)c(=O)n1-c1ccc(C)c(C)c1
-11% | O=C(Nc1ccccc1C(=O)OCc1cc(=O)n2ccsc2n1)c1ccc(Cl)cc1
-1% | Cc1ccc(NC(=O)Cn2nc3c(cc2=O)CCCC3)cc1Cl
-1% | CCOc1ccccc1C(=O)N(Cc1cc(OC)c(OC)c(OC)c1)C1CCS(=O)(=O)C1 (stereo unspecified)
-26% | Cc1ccccc1C(=O)n1nc(-c2ccco2)nc1NCc1cccs1
-8% | COc1cccc(OC)c1C(=O)Nc1ccc(S(=O)(=O)Nc2nccc(C)n2)cc1
4% | COc1cccc(C(=O)Nc2ccccc2OCc2cc(=O)n3cc(C)ccc3n2)c1
-7% | COc1ccc(OC)c(CCNc2ncnc3onc(-c4ccc(F)cc4)c23)c1
0% | CCOc1ccc2nc(NC(=O)c3nc(SC(C)C)ncc3Cl)sc2c1
11% | COc1ccc(C(=O)CN2C(=O)N(c3ccc(C(C)=O)cc3)S(=O)(=O)c3ccccc32)cc1
17% | O=C(Cn1c(-c2cccs2)cc2cc(F)ccc21)NCCCN1CCN(c2ccccc2F)CC1
3% | COc1ccc(N2C(=O)CSC23C(=O)N(Cc2cccc(C(F)(F)F)c2)c2ccccc23)cc1 (stereo unspecified)
3% | CCOC(=O)c1c(C)oc2nc(C)nc(NCCCN3CCN(c4ccccc4)CC3)c12
2% | CCOC(=O)c1c(NC(=O)c2cc(-c3cccc(Cl)c3)on2)sc(C(C)=O)c1C
-3% | COc1cc(OC)c(NC(=O)CCn2cccn2)cc1Cl
0% | CCOc1ccc(NC(=O)CSc2nc3c(c(=O)[nH]2)CCCC3)cc1
-9% | CCOC(=O)CSc1nc2sc3c(c2c(=O)n1Cc1ccccc1)CC(C)CC3 (stereo unspecified)
-33% | COc1cc(NC(=O)c2ccc3c(Cl)c4c(nc3c2)CCC4)cc(OC)c1OC
24% | Cc1cccc(-n2ncc(C(=O)N3CCN(Cc4ccccc4)CC3)c2C2CCN(C(=O)OC(C)(C)C)CC2)c1
-13% | COc1ccc(OC)c(CNC(=O)c2ccc(C)c(NC(=O)c3nsc4ccccc34)c2)c1
? | O=C(NCc1ccccc1)c1nc(S(=O)(=O)Cc2ccc(F)cc2)ncc1Cl
0% | CCN(C(=O)Cn1nnc2sc(-c3ccccc3)cc2c1=O)c1cccc(C)c1
-9% | O=C(COc1ccccc1)NCCc1csc(-c2cccc(F)c2)n1
-9% | COc1ccc(-c2cc(=O)c3cc(OCC(=O)OC(C)C)ccc3o2)cc1
-41% | Cc1ccc(CN(C(=O)COc2ccccc2Cl)c2ccccn2)o1
-1% | O=C(Nc1ccc(F)c(Cl)c1)Nc1c[nH]c(=O)[nH]c1=O
2% | Cc1ccc(C)c(Oc2c(C(F)(F)F)oc3c(CN4CCN(C)CC4)c(O)ccc3c2=O)c1
-7% | CCOC(=O)c1c(NC(=O)c2cc(C(C)C)on2)sc(C)c1C
-8% | O=C(CCn1cnc2ccccc2c1=O)NCc1ccccc1Cl
-50% | COc1ccc(-c2nc3ccccc3s2)cc1NC(=O)COc1ccc(C)cc1
-3% | Cc1ccc(C)c(N2CCN(CCCNC(=O)Cn3ncc4c([nH]c5ccccc54)c3=O)CC2)c1
25% | Cc1ccc(C)c(N2CCN(C(=O)Nc3cn(CC(C)C)c(=O)c4ccccc34)CC2)c1
-2% | Cc1cc(C)cc(-n2ccn(CC(=O)c3ccc(F)cc3)c(=O)c2=O)c1
29% | Cc1ccc(CCNC(=O)C2CCN(c3nnc(-n4cccc4CNc4ccc(C)cc4)s3)CC2)cc1
8% | Cc1ccc(C2CC(=O)Nc3cc4c(cc32)OCCO4)cc1Br (stereo unspecified)
2% | CCc1nc2cccnc2n1-c1ccc(CC(=O)Nc2c(C)cccc2C)cc1
-2% | O=C(Cc1ccc(F)cc1)NC1CC(=O)N(c2ccccc2)C1 (stereo unspecified)

# In another format: entries from further up.
canonical_smiles	miR-21 reporter
O=C(CCS(=O)(=O)c1nc(-c2ccc3c(c2)OCO3)cc(C(F)(F)F)n1)Nc1ccccc1C(F)(F)F	0%
COc1ccc(N2CC(NC(=O)c3ccco3)CC2=O)cc1OC (stereo unspecified)	0%
Cc1nc2ccccc2n1CCc1nc2c3ccccc3nc(SCc3ccccc3F)n2n1	-5%
CCn1c(COc2ccc(Cl)cc2Cl)nc2ccccc21	-37%
CCCCN(CC)c1ncnc2c1sc1nc(N3CCOCC3)c3c(c12)CCCC3	-6%
COc1ccc(CNC(=O)Cc2ccc(NC(=O)N3CCSc4ncccc43)cc2)cc1	0%

# New compounds follow.
miR-21 reporter | molecule
17% | COc1ccc(CNC(=O)CC2N=C3c4ccccc4N=C(SCC(=O)Nc4ccc(C(C)C)cc4)N3C2=O)cc1 (stereo unspecified)
12% | Cc1ccc(COC(=O)c2cc([N+](=O)[O-])ccc2N2CCOCC2)cc1
1% | CCCNC(=O)c1ccc2c(c1)sc1nc(-c3ccc(C)cc3)cn12
3% | COC(=O)c1ccccc1NC(=O)c1c(C)oc2ncn(C)c(=O)c12
5% | Cc1sc2ncn(CC(=O)Nc3ccc(F)cc3F)c(=O)c2c1S(=O)(=O)N1CCC(C)CC1
-10% | Cc1cccc(C(=O)Nc2nc3nc(-c4ccccc4)cc(=O)n3[nH]2)c1
3% | COc1cc(C2C(C(=O)Nc3ccc(C)cc3C)=C(C)Nc3nc4ccccc4n32)cc(OC)c1OC (stereo unspecified)
3% | COc1ccc(OC)c(NC(=O)CSc2cn(CC(=O)N3CCOCC3)c3ccccc23)c1
? | CCn1c(CN2CCC(C)CC2)nc2cc(NC(=O)COc3ccc(Cl)c(C)c3)ccc21
7% | COc1ccc(Nc2nc(N)nc(N)c2S(=O)(=O)c2ccccc2)cc1
8% | CCc1ccc(Nc2nc(-c3cc4cccc(OC)c4oc3=O)c(CC)s2)cc1
19% | Cc1ccc(-c2nnc(Nc3cccc(O)c3)c3ccccc23)cc1S(=O)(=O)N1CCCCC1
8% | CCn1nnc2cc(C(=O)Nc3cccc(C)c3C)ccc21

# High-throughput results as filed in PubChem.
